GLA inh pH 4.5: qHTS Assay for Inhibitors of Human alpha-Galactosidase at pH 4.5; AID 1467, 2008; 230,000 tested, under 10 active; Alpha-galactosidase A (Homo sapiens), P06280; purified enzyme, 4-MU-alpha-Gal fluorescence, pH 4.5; activity change, negative = inhibition, % at 105 µM; inconclusive = small, poorly fitted or top-dose-only inhibition, or a rising curve; inactive = flat fitted curve, though single readings scatter; no compound was filed as active;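 also: 0% = full activity with enzyme and -100% = basal without enzyme; dose as in the result columns while the protocol names 77 µM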
Target sequence (P06280 whole entry, looked up): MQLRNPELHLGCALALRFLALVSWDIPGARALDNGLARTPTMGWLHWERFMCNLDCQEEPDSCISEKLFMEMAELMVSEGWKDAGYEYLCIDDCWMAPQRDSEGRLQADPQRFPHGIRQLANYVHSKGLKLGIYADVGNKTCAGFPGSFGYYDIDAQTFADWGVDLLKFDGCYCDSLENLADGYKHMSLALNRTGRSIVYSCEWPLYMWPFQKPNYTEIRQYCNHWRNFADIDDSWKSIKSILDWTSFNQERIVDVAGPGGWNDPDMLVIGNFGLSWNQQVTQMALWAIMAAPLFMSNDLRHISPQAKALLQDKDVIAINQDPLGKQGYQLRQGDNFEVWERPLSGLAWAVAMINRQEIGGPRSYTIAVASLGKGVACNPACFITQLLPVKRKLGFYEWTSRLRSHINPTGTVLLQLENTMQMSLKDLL
miR-21 FLuc: qHTS Assay for Modulators of miRNAs and/orActivators of miR-21; HeLa miR-21 FLuc reporter, luciferase, 48 h; AID 2288, 2010; Potency, µM (top dose mostly 38.3 µM), for inactives: at the highest dose reporter change, positive = more light; 340,000 tested, under 10 active; active = well fitted rising curve with a large enough effect; inconclusive = small, poorly fitted or top-dose-only effect; inactive = no such curve, though single readings can be large or run the other way;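 also: % of control where 0% means no effect; miR-21 action dims this reporter so a rising signal means less miR-21 action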
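Using DMEM plus 10% FBS, HeLa miR-21-FLuc cells are incubated with test compounds (final up to about 40uM) for 48 hours; firefly luciferase signal is then imaged following reagent-mediated lysis.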
Rango-impB inh: qHTS Assay for Inhibitors of Rango (Ran-regulated importin-beta cargo) - Importin beta complex formation | Importin subunit beta-1 (Homo sapiens), Q14974 | hit rate 0.031% among 340,000 | Potency, µM (titrated, usually from 92.2 µM), for the others: at the highest dose inhibition of complex formation | Rango CFP/YFP FRET sensor + importin beta, 45 min; active = rising FRET ratio curve, often small or poorly fitted; inconclusive = mostly compound fluorescence or quenching in the first reads; inactive = flat curves in all reads;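 also: potency is read from the fitted curve at half-maximal effect; 0% = DMSO wells and 100% = buffer wells lacking importin beta; nearly all actives have a fitted effect of over 15% in size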
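Inhibition scored from the CFP 486 nm/YFP 530 nm FRET ratio 45 min after adding 0.125 microM importin beta to 50 nM Rango biosensor preincubated 5 min with compound (room temperature, PBS with DTT, Tween-20, BSA). No-importin wells as positive control.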
Rango dissoc inh: qHTS Assay for Inhibitors of RanGTP induced Rango (Ran-regulated importin-beta cargo) - Importin beta complex dissociation; Snurportin-1 (Homo sapiens) + GTP-binding nuclear protein Ran (Homo sapiens) + Importin …; Biochemical FRET Rango-importin beta, RanGTP-induced dissociation; Potency, µM (highest dose often 46.1 µM), for the others: at the top dose activity change, negative = inhibition; hit rate 0.071% among 340,000; AID 540253, 2011; active means falling FRET ratio curve, often poorly fitted, with flat reads before Ran was added; inconclusive means other falling curves, or compound fluorescence or quenching; inactive means flat or rising ratio curve;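 also: potency is read from the fitted curve at half-maximal effect; % of control where 0% means no effect; nearly all actives have a fitted effect of over 45% in size; -100% = wells without RanGTP and RCC1; the record marks most hits as doubtful in a second field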
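Compounds preincubate 5 min with complex of recombinant Rango and importin beta in PBS with 1 mM DTT. Ran (0.6 uM) loaded with 2 mM GTP plus 0.2 uM RCC1 starts dissociation; FRET is recorded 45 min later.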
Starred values were filed as active, the others as inactive; u = inconclusive; x = no result given; & = joins results of further samples. Not all compounds are listed; count on the stated rates, not on these rows.

SMILES	GLA inh pH 4.5	miR-21 FLuc	Rango-impB inh	Rango dissoc inh
Cc1ccc(S(=O)(=O)Cn2nnnc2C(c2ccc(F)cc2)N2CCC(C(N)=O)CC2)cc1 (stereo not given)	3	1%	3.3%	-1%
COc1ccc(-n2nc(C(=O)NCC(=O)Nc3cccc(NC(C)=O)c3)c3ccccc3c2=O)cc1	-3	10%	6.2%	8%
Cc1nn(-c2cccc(Cl)c2)c2nc(-c3ccncc3)cc(C(=O)N3CCOCC3)c12	-1	-1%	6.0%	-7%
Cc1ccc(OCCNC(=O)CCC(=O)N2CCOCC2)cc1	x	x	-3.3%	-11%
CC(C)NCC(O)COCCOc1ccc(Cl)cc1 (stereo not given)	-10	-4%	0.2%	4%
CC1(C)Cc2noc(N)c2C(C)(C)N1OC(=O)c1ccccc1	2	3%	-3.4%	-3%
CCN(CC)C(=O)c1sc(NC(=O)c2ccoc2C)c(C(=O)OC)c1C	2	-5%	1.6%	16%
NC(=S)N/N=C/c1ccccc1O	6	9%	u	1%
CNC(=O)c1c(Cl)cnn1-c1ccc(C)cc1	-1	-52%	0.0%	-15%
Cc1cc(=O)n(CC(=O)O)c2ccccc12	-9	-2%	-0.6%	-18%
COc1ccc(C(c2sc3nc(C)nn3c2O)N2CCCCC2)cc1 (stereo not given)	-7	-8%	-1.4%	-12%
CCc1ccc(CCC(=O)Nc2nnc(CC)s2)o1	17	-9%	2.0%	9%
CCOc1ccc(CN2CCNC(=O)C2CC(=O)N(C)CC2CCOCC2)cc1 (stereo not given)	x	-2%	0.6%	0%
CCn1nccc1C(=O)Nc1cccc(C)c1C	x	1%	-1.8%	10%
COCC(C)n1c(C)cc(C(=O)COC(=O)/C=C/c2cccc(F)c2)c1C (stereo not given)	-1	-4%	-4.0%	-6%
COc1cccc(-c2nc(CS(=O)(=O)CC(=O)NCCc3ccc(OC)c(OC)c3)c(C)o2)c1	x	4%&1%	0.0%	-14%
CC(C)N(C)C1CCN(C(=O)Nc2ccc(Cl)c(Cl)c2)CC1	4	-4%	-3.6%	14%
CCC(C)NS(=O)(=O)c1ccc(NS(=O)(=O)c2ccc(F)cc2)cc1 (stereo not given)	-8	0%	-2.2%	0%
Cc1ccccc1C(=O)/C=C1/c2ccccc2CC(C)(C)N1C	-13	0%	-0.4%	-1%
CSCCC(=O)NC1CC(C)(C)Cc2c1cnn2-c1ccccc1C (stereo not given)	x	2%	0.5%	-24%
COc1cccc(CNC(=O)CS(=O)(=O)Cc2nc(-c3ccc(C)cc3)oc2C)c1OC	x	-1%	0.8%	4%
O=C(CCc1ccccc1)NNC(=O)Nc1cccc(Cl)c1	x	-5%	-0.9%	11%
COc1ccc(Cl)cc1NC(=O)COC(=O)Cc1cccs1	x	x	1.9%	2%
O=C(NNC1=C(C(=O)C(F)(F)F)CCC1)c1ccc(Br)cc1	-3	-14%	-2.3%	2%

Six compounds already listed, sorted by the value under Rango dissoc inh, low to high.
SMILES	GLA inh pH 4.5	miR-21 FLuc	Rango-impB inh	Rango dissoc inh
CSCCC(=O)NC1CC(C)(C)Cc2c1cnn2-c1ccccc1C (stereo not given)	x	2%	0.5%	-24%
Cc1nn(-c2cccc(Cl)c2)c2nc(-c3ccncc3)cc(C(=O)N3CCOCC3)c12	-1	-1%	6.0%	-7%
CCOc1ccc(CN2CCNC(=O)C2CC(=O)N(C)CC2CCOCC2)cc1 (stereo not given)	x	-2%	0.6%	0%
O=C(NNC1=C(C(=O)C(F)(F)F)CCC1)c1ccc(Br)cc1	-3	-14%	-2.3%	2%
COc1cccc(CNC(=O)CS(=O)(=O)Cc2nc(-c3ccc(C)cc3)oc2C)c1OC	x	-1%	0.8%	4%
O=C(CCc1ccccc1)NNC(=O)Nc1cccc(Cl)c1	x	-5%	-0.9%	11%

(continued)
SMILES	GLA inh pH 4.5	miR-21 FLuc	Rango-impB inh	Rango dissoc inh
COc1ccccc1C(=O)Nc1ccc(Cc2ccncc2)cc1	-20	-15%	-1.2%	-13%
N#CC1=C(N)C(C#N)(C#N)C(c2ccncc2)C2CN(C(=O)OCc3ccccc3)CC=C12 (stereo not given)	2	-7%	u	u
CC(=O)c1sc(N/N=C\c2ccccc2O)nc1C	-11	4%	u	u
COc1cc(/C=C2\S/C(=N/S(=O)(=O)c3ccc(C)cc3)NC2=O)c([N+](=O)[O-])cc1OC	-6	-51%	2.7%	2%
COc1cc(OC)cc(C(=O)NC(=S)NCCc2ccccc2)c1	-1	-24%	-3.5%	-7%
CCCCNC(=O)c1ccc(NC(=O)CC2SC(N3CCCC3)=NC2=O)cc1 (stereo not given)	x	x	0.3%	-10%
COC(=O)c1sc(S(=O)(=O)Nc2ccc3cn[nH]c3c2)c(C(=O)OC)c1C	-3	-3%	4.6%	-3%
O=C(Cc1ccccc1)Nc1ccccc1N1CCCC1	-11	-12%	-0.2%	-6%
CC(NC(=O)CN1C(=O)NC2(CCc3ccccc32)C1=O)c1ccc2c(c1)OCCO2 (stereo not given)	x	x	2.1%	-3%
C=CCc1cc(S(=O)(=O)c2ccc(O)c(CC=C)c2)ccc1O	x	6%	-1.5%	-2%
Cc1ccc(N/N=C2\CS(=O)(=O)N(C)c3ccsc32)cc1	-4	-49%	-1.8%	-1%
COc1ccc(C)cc1NC(=O)CN1CCN(S(=O)(=O)c2ccc(F)cc2)CC1	8	-1%	2.1%	5%
COc1cccc(/C=N/NC(=O)CNC(=O)c2cccnc2)c1O	x	9%	0.8%	-11%
O=C(CCCN1C(=O)CCC1=O)Nc1cccc(C(F)(F)F)c1	-2	-7%	0.0%	-5%
CCCN1CCC(NC(=O)Cc2ccccc2C)CC1	x	-4%	2.3%	0%
COc1cc2c(c(OC)c1OC)-c1ccc(SC)c(=O)cc1C(NC=O)CC2 (stereo not given)	x	x	1.6%	-6%
Cc1cccc(-c2nc3ccc(C(=O)NCCN4CCN(C)CC4)cc3nc2-c2cccc(C)c2)c1	x	25%	1.6%	0%
COc1ccccc1NC(=O)N1CCCC1C(=O)Nc1nnc(C(C)C)s1 (stereo not given)	6	-4%	4.7%	-10%
OCC1C2c3ccccc3C(c3ccccc32)C1CO (stereo not given)	5	5%	0.0%	-19%
COc1ccc2ccc(OC)c(/C=N/n3cnnc3)c2c1	x	0%	-0.2%	46%
COc1ccccc1-c1coc2c(CN3CCCC(C)C3)c(O)ccc2c1=O (stereo not given)	x	-1%	1.6%	u
CN(CCc1ccccc1)C(=O)c1ccc(NC(=O)Cc2cccc(NC(=O)C3CCN(C(=O)C4CCCCC4)CC3)c2)cc1	x	x	0.6%	4%
O=C(NCCO)c1ccc(-c2nnc(N3CCOCC3)c3ccccc23)cc1	0	-7%	-0.9%	1%
COc1cccc(C(=O)NCCNC(=O)c2ccco2)c1	x	-7%	-0.2%	0%
COc1cccc(C2(C)NC(=O)N(CC(=O)c3cc(C)n(C4CC4)c3C)C2=O)c1 (stereo not given)	x	x	0.3%	27%
COCCn1c(SCC(=O)Nc2sccc2C(N)=O)nc2cc(Cl)ccc2c1=O	7	28%	-1.2%	1%
CCOc1ccc(OCc2ccc(C(=O)N(C)c3ccccc3)o2)cc1	x	-9%	-0.3%	0%
CN(C)C(=O)c1cn(-c2ccccc2)nc1-c1cc2ccccc2o1	8	-11%	0.0%	9%
CCN(CC)Cc1c(O)ccc2c(=O)c(Oc3ccccc3OC)coc12	-13	-1%	-0.6%	8%
Cc1ccc(OCC(=O)Nc2ccccc2N2CCCC2)c(C)c1	-5	-12%	0.2%	-13%
C#CCn1ccc(O)c(Cc2c(F)cccc2Cl)c1=O	2	-14%	0.8%	-3%
CC(C)(C)NC(=O)NC(=O)Cn1cc(C(F)(F)F)ccc1=O	4	-3%	0.2%	7%
CCN(CC)C(=O)[C@H]1CC(CC(=O)NCCCn2ccnc2)C(=O)N2CCc3c([nH]c4ccccc34)[C@]12C (stereo not given in full)	x	x	-3.1%	4%
CCOC(=O)C(=O)Cc1nc2ccccc2s1	-7	-28%	u	-8%
C=CCc1cc(C)ccc1OCCOCCN1CCN(C)CC1	x	-6%	-1.4%	10%
O=C(Nc1c2c(nn1-c1ccc(Cl)cc1)CS(=O)(=O)C2)C1CC1	x	-2%	3.1%	-11%
N#CCc1ccc(NC(=O)/C=C/c2ccc([N+](=O)[O-])o2)cc1	-2	u	u	u
O=c1cccc2c1c1cc[nH]c3ccc(=O)n2c31	x	x	-4.6%	-29%
CNCc1cn2cc(Cl)ccc2n1	5	-4%	2.3%	-13%
COCCN1CCN(C(=O)c2cc(COc3ccc(Cl)cc3OC)on2)CC1	x	-49%	-0.9%	10%
COc1ccccc1C(=O)NCC(=O)NCCCN1CCOCC1	x	x	-3.7%	-1%
CCCNc1c(NS(=O)(=O)c2ccc(C3CCCCC3)cc2)c(=O)oc2ccccc12	x	3%	0.3%	1%
C=CCN1C(=O)c2oc3ccccc3c(=O)c2C1c1ccc(O)c(OC)c1 (stereo not given)	-2	-2%	u	8%
CCC(Sc1nc2ccccc2c(=O)n1CC1CCCO1)C(=O)NCc1cccnc1 (stereo not given)	-1	-5%	0.3%	4%
Cc1ccccc1-n1c(=O)cc(N2CC(C)OC(C)C2)[nH]c1=O (stereo not given)	1	0%	2.4%	-12%
Cc1ccc(C2=NCCNC2=O)c(C)c1	3	1%	3.4%	15%
Cc1ccccc1C(=O)Nc1ccc2nc3n(c(=O)c2c1)CCCC3	x	-17%	-2.7%	-1%
COc1ccc(-c2c[n+]3c(n2-c2ccccc2)CCCCC3)cc1	-6	u	21%	0%
Cc1ccc(NCC(=O)c2ccc(C)cc2)cc1	x	-39%	7.5%	3%
O=C(/C=C/Nc1ccc(F)cc1)c1ccc(Oc2ncccn2)cc1	17	-22%	-0.2%	4%
O=c1oc2ccccc2c2c1C(c1ccc(Cl)cc1)Nc1ccc3ccccc3c1-2 (stereo not given)	5	6%	-2.7%	23%
O=C(OCC(=O)N1CCc2ccccc2C1)c1cccnc1Cl	-4	-31%	-2.7%	-4%
CC(C)C1(C2CCCC2)NC(=O)NC1=O (stereo not given)	x	x	-0.6%	-1%
CCOC(=O)c1c(-c2ccc(-c3ccccc3)cc2)csc1NC(=O)C1C2CCC(O2)C1C(=O)O (stereo not given)	-5	13%	3.5%	-8%
COc1ccc(S(=O)(=O)N2CCN(C(=O)Cc3cccs3)CC2)cc1	1	-2%	-0.6%	-12%
CCN(CC1CCCO1)C(=O)CCc1nnc(Cc2ccc3c(c2)OCO3)o1 (stereo not given)	-6	-11%	2.0%	10%
Cc1c(CNC2CCC(C)CC2)c(C(=O)O)c(C)n1Cc1ccccc1 (stereo not given)	0	-9%	-0.6%	23%
O=C(COC(=O)c1ccco1)Nc1ccc([N+](=O)[O-])cc1Cl	x	x	-3.6%	-6%
Cc1ccccc1/C=N/Nc1ncnc2nc[nH]c12	5	-103%	1.7%	-7%
O=C(CSc1nc(C(F)(F)F)cc(=O)[nH]1)N1CCC(Cc2ccccc2)CC1	x	x	-3.4%	-11%
(cont.)
SMILES	GLA inh pH 4.5	miR-21 FLuc	Rango-impB inh	Rango dissoc inh
O=C(CN1CCN(C(c2ccccc2)c2ccccc2)CC1)NC(=O)NCc1ccco1	-15	1%	0.8%	3%
CC(=O)SC(C)CC(=O)Nc1ccccc1 (stereo not given)	8	-7%	-1.0%	-14%
Cc1ccccc1CNC(=O)Cc1cccs1	3	-40%	0.4%	14%
CCN(CC)C(=O)CSc1nc(-c2cccs2)cc(-c2cccs2)c1C#N	-3	2%	u	15%
CC(=O)CSc1nc(N(C)C)nc(N(C)C)n1	-19	-2%	-0.7%	-2%
Cc1cc(C(=O)NN=C2CC(=O)CC(C)(C)C2)c(C)o1	x	x	-1.4%	1%
COc1cc(NS(=O)(=O)c2ccc(Nc3nc(-c4cccc([N+](=O)[O-])c4)cs3)cc2)nc(OC)n1	1	-16%	-1.6%	-2%
